Screens: PubChem BioAssay, National Center for Advancing Translational Sciences (NCATS)
Cruzain Triton: qHTS Assay for Promiscuous and Specific Inhibitors of Cruzain (with detergent). purified cruzain, Z-FR-AMC fluorescence, 0.01% Triton. Potency, µM, for inactives: max response, negative = inhibition, hits mostly inhibitors. actives 0.43% (n = 200,000). AID 1478, 2009;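 also: plate controls were neutral wells for no effect and buffer without enzyme for full effect; nearly all actives have a fitted effect of over 40% in size; top concentration of the series not given in the record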
Target sequence (P25779 123-467 limits assumed): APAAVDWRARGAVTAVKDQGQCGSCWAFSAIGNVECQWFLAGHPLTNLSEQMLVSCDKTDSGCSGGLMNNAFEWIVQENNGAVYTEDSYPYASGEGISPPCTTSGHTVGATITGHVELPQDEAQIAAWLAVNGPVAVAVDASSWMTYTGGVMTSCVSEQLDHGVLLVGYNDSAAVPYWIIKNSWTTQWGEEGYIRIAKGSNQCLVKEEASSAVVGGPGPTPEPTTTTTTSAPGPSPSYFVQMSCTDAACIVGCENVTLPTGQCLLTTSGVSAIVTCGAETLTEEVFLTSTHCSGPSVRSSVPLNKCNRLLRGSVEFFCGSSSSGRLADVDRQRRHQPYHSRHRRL
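Detergent-containing arm of a paired screen for aggregation-based inhibition: 0.01% Triton X-100 present. Cruzain at 1.5 nM cleaved 2 uM Z-FR-AMC at pH 5.5 with 5 mM DTT; AMC fluorescence gain over 60 s measured activity.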
Lassa entry inh: qHTS for Inhibitors of binding or entry into cells for Lassa Virus. AID 540256, 2011. Potency, µM (doses to about 37.9 µM), for the others: top-dose activity change, negative = inhibition, usual class: inhibitors. actives 1.2% (n = 300,000). Lassa virus pseudotype entry inhibition, cell reporter; control for the full effect not named in the record; active means well fitted inhibition curve with a large enough effect; inconclusive means small, poorly fitted or top-dose-only effect, or effect the other way; inactive means flat fitted curve, though single readings scatter; tested in HEK293 cells; also: % is scaled to controls: 0 for no effect and ±100 for the full control effect; nearly all actives have a fitted effect of over 50% in size; luciferase read-out
Cruzain noTriton: qHTS Assay for Promiscuous and Specific Inhibitors of Cruzain (without detergent); Potency, µM, for the others: max response, negative = inhibition, actives largely listed as inhibitors; actives 2.3% (n = 200,000); Cruzipain (Trypanosoma cruzi), P25779; purified cruzain, Z-FR-AMC fluorescence, no detergent;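 also: plate controls were enzyme without inhibitor for no effect and buffer without enzyme for full effect; nearly all actives have a fitted effect of over 40% in size; top concentration of the series not given in the record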
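Detergent-free condition (0.00005% Triton X-100) in acetate buffer pH 5.5 with DTT. 1.5 nM enzyme and compound were pre-mixed 15 min, then 2 uM Z-FR-AMC substrate added; reaction progress from fluorescence change between first and third reads (60 s).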
NS1 function inh: qHTS Assay for Inhibitors of Influenza NS1 Protein Function. S. cerevisiae slowed by influenza A NS1, growth recovery by OD600. Potency, µM (doses to about 46.1 µM), without a hit: top-dose activity, positive = more growth. actives 0.4% (n = 270,000); active means well fitted rising curve with a large enough effect; inconclusive means small, poorly fitted or top-dose-only effect; inactive means no such curve, though single readings can be large or run the other way; also: nearly all actives have a fitted effect of over 50% in size
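OD600 was taken as the measure of yeast growth restored by compound in an NS1-expressing S. cerevisiae strain. Cells had been washed out of glucose medium and diluted 1:100 into galactose -URA medium, pH 6.0.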
2A StopGo: High Throughput Screening for Foot and Mouth Disease Virus Antivirals | human cells with a luciferase reporter of 2A StopGo recoding; control for the full effect not named in the record | Potency, µM (series often up to 57.9 µM), without a hit: top-dose signal change, negative = less light | actives 1.2% (n = 410,000) | AID 1159524, 2015; active = well fitted falling curve with a large enough effect; inconclusive = small, poorly fitted or top-dose-only effect; inactive = no such curve, though single readings can be large or run the other way; tested in HEK293T cells; also: % is scaled to controls: 0 for no effect and ±100 for the full control effect; nearly all actives have a fitted effect of over 45% in size; luciferase light after 4 h
RE007 growth inh: qHTS Assay for Inhibitors of the HIV-1 protein Vpr | S. pombe RE007 Vpr strain, BacTiter-Glo ATP luminescence, 24 h; control for the full effect not named in the record | actives 0.21% (n = 360,000) | Potency, µM (series often up to 92.2 µM), inactives show top-dose activity change, negative = less growth; active = well fitted falling curve with a large enough effect; inconclusive = small, poorly fitted or top-dose-only effect; inactive = no such curve, though single readings can be large or run the other way;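 also: % is scaled to controls: 0 for no effect and ±100 for the full control effect; nearly all actives have a fitted effect of over 50% in size; the assay follows cell death caused by Vpr and the record does not say whether a fall means rescue or toxicity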
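Fission yeast strain RE007, carrying one chromosomally integrated HIV-1 vpr copy, was seeded at OD 0.01 in PMG+AL medium with 23 nL pinned compound. After 24 h at 30 °C and 99% humidity, viability was read by BacTiter-Glo luminescence.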
Marburg entry inh: qHTS for inhibitors of binding or entry into cells for Marburg Virus | Marburg virus pseudotyped entry inhibition, cell reporter; control for the full effect not named in the record; about a third of the inactives were read at about 46 µM | Potency, µM (top dose mostly 37.8 µM), for the others: at the highest dose activity change, negative = inhibition, hits mostly inhibitors | actives 1.8% (n = 300,000); active = well fitted inhibition curve with a large enough effect; inconclusive = small, poorly fitted or top-dose-only effect, or effect the other way; inactive = flat fitted curve, though single readings scatter; tested in HEK293 cells; about a fifth of its hits are not listed in these tables; also: % is scaled to controls: 0 for no effect and ±100 for the full control effect; luciferase read-out
SARS PLpro yeast: qHTS of Yeast-based Assay for SARS-CoV PLP; actives 0.19% (n = 330,000); S. cerevisiae expressing SARS-CoV PLpro, growth rescue; control for the full effect not named in the record; Potency, µM (titrated, usually from 32.9 µM), for inactives: top-dose activity, positive = growth rescue; active means well fitted rising curve with a large enough effect; inconclusive means small, poorly fitted or top-dose-only effect; inactive means no such curve, though single readings can be large or run the other way; also: 0% is about no effect; nearly all actives have a fitted effect of over 55% in size; growth read by luminescence after 48 h
The depositor's hits bear a star; ? = inconclusive; · = not tested or not shown; & = joins results of further samples; [ ] = remark or other dose. Unless noted, calls follow the shape of the dose curve; as a rule, active = well fitted curve in the direction sought with a large enough effect; inconclusive = small, poorly fitted or top-dose-only effect, or another doubt; inactive = no such curve, though single readings can be large; an effect the other way counts as inactive or inconclusive. Potency is read from the fitted curve at half-maximal effect.

SMILES	Cruzain Triton	Lassa entry inh	Cruzain noTriton	NS1 function inh	2A StopGo	RE007 growth inh	Marburg entry inh	SARS PLpro yeast
CCN(Cc1ccccc1)c1ccc(N=Nc2nn(C)c(C)c2[N+](=O)[O-])cc1	-5.9%	17%	?	?	0%	2%	15%	11%
COc1cc2c3nc4n(c(=O)c3n(CC(=O)NCC3CCCO3)c2cc1OC)CCS4 (centres undefined)	·	13%	·	-5%	-12%	-4%	4%[46.1 µM]	-3%
COc1ccccc1[C@@H]1C(c2ccccc2)=NN(c2ccccc2)[C@H]1C(=O)N1CCOC1=O	-4.7%	·	?	·	-18%	7%	·	-2%
Cc1ccc(-c2nnn(CC(=O)N(CC(=O)NC3CCCC3)c3cccc(F)c3)n2)o1	·	-5%[46.1 µM]	·	5%	11%	4%	-7%[46.1 µM]	1%
CC1(C)CC(=O)C2=C(C1)OC(N)=C(C#N)C2C1C=CCCC1 (centres undefined)	-1.8%	?	-1%	6%	?	?	7%	-1%
CN(C)C(=O)C(=O)c1cccn1-c1cccc(Cl)c1C#N	·	·	·	2%	-7%	5%	·	0%
O=C(NCc1ccco1)c1cccc2c1C(=O)N(C1CCCCC1)C2	2.3%	-1%	7%	-16%	-23%	-16%	5%[46.1 µM]	-7%
Cn1ncc2c(NNC(=O)c3ccc(Cl)cc3Cl)ncnc21	0.3%	6%	6%	-6%	-20%	20%	5%	?
Cc1ccc(S(=O)(=O)NCCCC(=O)N2CCC(C)CC2)cc1	·	0%	·	-4%	2%	8%	?	0%
CCN(C(=O)CN1CCCCC1)C1(C)C(=O)c2ccccc2C1=O	0.1%	15%	-14%	6%	-2%	-8%	18%	-1%
CCOc1ccc2c(c1)c(=O)c(C(=O)c1ccccc1)cn2Cc1ccccc1	-4.6%	20%[46.1 µM]	-8%	·	0%	·	7%[46.1 µM]	·
COc1ccc(NS(=O)(=O)c2cc(NC(=O)c3cccnc3Cl)ccc2N2CCCC2)cc1	·	·	·	15%	72%[activator]	4%	·	0%
COc1ccc(S(=O)(=O)N(C)CC(=O)NCCc2ccccc2)cc1OC	·	·	·	-4%	-21%	-4%	·	0%
CCC1CC2(C)NC(=O)c3c(sc4c3CC(C)(C)OC4)N2C1=O (centres undefined)	1.4%	-3%	-10%	6%	?	-18%	-8%&-3%	-3%
COc1ccc(-c2c(C#N)sc(C(N)=O)c2-c2ccc(OC)cc2)cc1	·	·	·	2%	0%	-2%	·	0%
COc1ccc(CN2C(=O)c3cccnc3C2Nc2cc(Cl)c(OC)cc2OC)cc1 (centres undefined)	-17%	-20%	-1%	-8%	-17%	4%	8%	-29%
Cc1ccc(Cl)cc1N1CCN(C(=O)c2c(C)oc3ncnc(N4CCOCC4)c23)CC1	-2.5%	?	?	·	-24%	·	·	·
CCOC(=O)c1ccc(Cl)c(NC(=O)c2ccc(-c3ccccc3)cc2)c1	3.0%	1%	?	4%	·	-3%	?	6%
COC(=O)Cc1ccc(NC(=S)N2CCCC(C)C2)cc1 (centres undefined)	-1.1%	?	2%	-5%	1%	-7%	?	14%
CCC(C)(C)NC(=O)c1ccc2c(c1)N(CC(=O)N1CCCC1)C(=O)C(C)(C)O2	·	·	·	4%	-13%	5%	·	0%
CCCCn1c(N)nc2ccccc21	-11%	-3%	?	-3%	·	-2%	?	7%[6.58 µM]
OCC1NCC(O)C(O)C1O (centres undefined)	-3.1%	9%	5%	0%	·	·	?	·
O=C(CCN1C(=O)/C(=C/c2ccccc2F)SC1=S)NCCc1ccc(O)cc1	·	·	·	2%	-10%	7%	·	-5%
CS(=O)(=O)c1cnc(-c2ccccc2)nc1-c1ccccc1Cl	·	-12%	·	-3%	-5%	4%	?	0%
Cc1ccc(OCC(=O)Nc2ccc(NC(=O)c3ccco3)cc2)c(C)c1	·	-12%	·	7%	10%	6%	?	10%
CCCCNC(=O)c1ccc2c(c1)S(=O)(=O)c1ccccc1C2=O	·	?	·	-10%	-4%	11%	?	?
Cc1ccnc(NC(=O)c2cc3ccccc3oc2=O)c1	·	10%	·	-1%	-43%	-3%	?	4%
COC(=O)Cc1c(C(=O)OC)nnn1-c1ccc(OC)cc1	·	?	·	·	0%	14%	3%[46.1 µM]	3%
O=C1C2CC=CCC2C(=O)N1c1ncn[nH]1 (centres undefined)	1.6%	29%[14.3 µM]	-7%	-4%	11%	-6%	10%	4%
COC(CN(C(=O)CCl)C(C(=O)NC1CCCCC1)c1ccc(Cl)cc1)OC (centres undefined)	-6.1%	-6%	-2%	3%	?	-4%	?	6%
OC(COc1ccccc1)CN1CCN(c2ncccn2)CC1 (centres undefined)	4.9%	-1%	0%	0%	0%	1%	11%	-1%
O=C(NCCC1=CCCCC1)c1ccc2c(c1)N(Cc1ccc(Cl)cc1)C(=O)c1ccccc1S2=O (centres undefined)	-3.0%	-22%[46.1 µM]	-45%	·	-11%	·	?	·
CCNc1nc(C23CC4CC(CC(C4)C2)C3)cs1	·	?	·	·	?	-1%	?	14%
O=C(NCc1ccccc1)c1cc2nc(C3CC3)cc(C(F)(F)F)n2n1	-0.6%	-15%	-1%	-26%	20%	-4%	?	0%
CCOC(=O)c1c(N)n(-c2cc(C)cc(C)c2)c2nc3ccccc3nc12	-0.5%	-9%[46.1 µM]	-6%	·	-2%	·	·	·
CCCN(CCC(=O)Nc1ccccc1F)CC1CC1	1.6%	10%	5%	-1%	-6%	-2%	3%	0%
Cc1cc(C)cc(OCCNC(=O)CCc2ccccc2)c1	·	?	·	-23%	-15%	3%	?	-2%
CCN1CCCC1CN(Cc1cc2cc(C)cc(C)c2[nH]c1=O)C(=O)Nc1ccccc1OC (centres undefined)	0.9%	10%	-2%	21%	-13%	-10%	?	2%
CCCc1nnc(SCC(=O)N2CCCCC2C)n1CC (centres undefined)	3.1%	4%	-4%	7%	10%	2%	16%	0%
CCOC(=O)c1cc(S(=O)(=O)N2CCN(c3ccccc3)CC2)[nH]n1	-4.7%	25%[46.1 µM]	2%	·	21%	·	·	·

6 consecutive entries already listed:
SMILES	Cruzain Triton	Lassa entry inh	Cruzain noTriton	NS1 function inh	2A StopGo	RE007 growth inh	Marburg entry inh	SARS PLpro yeast
CCOC(=O)c1c(N)n(-c2cc(C)cc(C)c2)c2nc3ccccc3nc12	-0.5%	-9%[46.1 µM]	-6%	·	-2%	·	·	·
CCCN(CCC(=O)Nc1ccccc1F)CC1CC1	1.6%	10%	5%	-1%	-6%	-2%	3%	0%
Cc1cc(C)cc(OCCNC(=O)CCc2ccccc2)c1	·	?	·	-23%	-15%	3%	?	-2%
CCN1CCCC1CN(Cc1cc2cc(C)cc(C)c2[nH]c1=O)C(=O)Nc1ccccc1OC (centres undefined)	0.9%	10%	-2%	21%	-13%	-10%	?	2%
CCCc1nnc(SCC(=O)N2CCCCC2C)n1CC (centres undefined)	3.1%	4%	-4%	7%	10%	2%	16%	0%
CCOC(=O)c1cc(S(=O)(=O)N2CCN(c3ccccc3)CC2)[nH]n1	-4.7%	25%[46.1 µM]	2%	·	21%	·	·	·

Next entries:
SMILES	Cruzain Triton	Lassa entry inh	Cruzain noTriton	NS1 function inh	2A StopGo	RE007 growth inh	Marburg entry inh	SARS PLpro yeast
c1ccc(-c2ccccc2OCCN2CCCCC2)cc1	3.1%	?	-1%	13%	2%	-2%	15µM*	8%
NNC(=O)c1ccc2c(c1)S(=O)(=O)NNC2=O	·	11%	·	·	9%	-15%	4%[46.1 µM]	-2%
Cc1cccc(OCC(=O)Nc2ccc3c(c2)nc2n3CCOC2)c1	·	0%	·	-14%	16%	-15%	-6%	-2%
COc1ccc(C(=O)CNc2ccccc2Br)cc1	·	2%[46.1 µM]	·	-10%	8%	1%	?	0%
CC(C)C(NC(=O)c1ccccc1NC(=O)c1ccccc1)C(=O)NNC(=O)c1ccncc1 (centres undefined)	·	·	·	1%	4%	22%	·	1%
O=C(c1ccccc1)c1ccc2c(c1)OCCCO2	·	24%[46.1 µM]	·	-3%	8%	-1%	-20%[46.1 µM]	-1%
CC(=O)c1cccc(Nc2c3c(nc4ccccc24)CCC3)c1	·	·	·	4%	?	11%	·	3%
Cc1ccc(N2C(=O)C3C4C=CC(CC4)C3C2=O)cc1Br (centres undefined)	·	11%[46.1 µM]	·	21%	-7%	2%	5%[46.1 µM]	2%
COc1cc(C(=O)NC(=S)Nc2csc(-c3ccc(F)cc3)n2)cc(OC)c1OC	·	·	·	-1%	-3%	6%	·	2%
COc1ccc(-c2csc(NC(=O)c3ccc(S(=O)(=O)N4CCc5ccccc5C4)cc3)n2)cc1	0.0%	4%	5µM*	9%	-25%	-9%	?	11%
O=C(NC(=O)N1CCN(C(c2ccccc2)c2ccccc2)CC1)c1ccccc1	·	?	·	-44%	-4%	8%	?	-2%
C/C(=N/NC(=O)c1ccccn1)c1ccco1	-2.4%	?	-8%	0%	·	-12%	?	-9%
COc1ccc(CNCC(O)(c2ccccc2)c2ccccc2)cc1OC	·	-15%[46.1 µM]	·	·	?	?	?	2%
C=CCn1c(SCn2nnc3ccccc3c2=O)nnc1C1CCCCC1	4.2%	12%	-3%	4%	0%	9%	-18%	1%
O=C(CN1CCN(Cc2ccc(F)cc2Cl)C1=O)NCCc1ccccc1	0.0%	·	-1%	-1%	-1%	0%	·	0%

Pulled one by one from above (2):
SMILES	Cruzain Triton	Lassa entry inh	Cruzain noTriton	NS1 function inh	2A StopGo	RE007 growth inh	Marburg entry inh	SARS PLpro yeast
COc1cc2c3nc4n(c(=O)c3n(CC(=O)NCC3CCCO3)c2cc1OC)CCS4 (centres undefined)	·	13%	·	-5%	-12%	-4%	4%[46.1 µM]	-3%
CCCCn1c(N)nc2ccccc21	-11%	-3%	?	-3%	·	-2%	?	7%[6.58 µM]
